LANA-H2B inh – blockers of LANA interaction with H2A/H2B – biochemical, FP readout, HTS, primary screen; Protein LANA1 (Human herpesvirus 8 type P (isolate GK18)), Q9QR71; cell-free LANA-H2A/H2B peptide, fluorescence polarization; inhibition, % (no concentration beside the values); 320,000 compounds, 0.6% hits; AID 2629, 2010; in the data active = inhibition mostly above about 10%, no sharp cut-off; inactive = mostly below about 6.7%;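 note: stock transfer was 7.5 nL into about 10 µL; 0% = median of vehicle wells and 100% = median of positive control wells; one replicate is shown; the record names a cut of 25% in any replicate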
Target sequence (Q9QR71 whole entry, looked up): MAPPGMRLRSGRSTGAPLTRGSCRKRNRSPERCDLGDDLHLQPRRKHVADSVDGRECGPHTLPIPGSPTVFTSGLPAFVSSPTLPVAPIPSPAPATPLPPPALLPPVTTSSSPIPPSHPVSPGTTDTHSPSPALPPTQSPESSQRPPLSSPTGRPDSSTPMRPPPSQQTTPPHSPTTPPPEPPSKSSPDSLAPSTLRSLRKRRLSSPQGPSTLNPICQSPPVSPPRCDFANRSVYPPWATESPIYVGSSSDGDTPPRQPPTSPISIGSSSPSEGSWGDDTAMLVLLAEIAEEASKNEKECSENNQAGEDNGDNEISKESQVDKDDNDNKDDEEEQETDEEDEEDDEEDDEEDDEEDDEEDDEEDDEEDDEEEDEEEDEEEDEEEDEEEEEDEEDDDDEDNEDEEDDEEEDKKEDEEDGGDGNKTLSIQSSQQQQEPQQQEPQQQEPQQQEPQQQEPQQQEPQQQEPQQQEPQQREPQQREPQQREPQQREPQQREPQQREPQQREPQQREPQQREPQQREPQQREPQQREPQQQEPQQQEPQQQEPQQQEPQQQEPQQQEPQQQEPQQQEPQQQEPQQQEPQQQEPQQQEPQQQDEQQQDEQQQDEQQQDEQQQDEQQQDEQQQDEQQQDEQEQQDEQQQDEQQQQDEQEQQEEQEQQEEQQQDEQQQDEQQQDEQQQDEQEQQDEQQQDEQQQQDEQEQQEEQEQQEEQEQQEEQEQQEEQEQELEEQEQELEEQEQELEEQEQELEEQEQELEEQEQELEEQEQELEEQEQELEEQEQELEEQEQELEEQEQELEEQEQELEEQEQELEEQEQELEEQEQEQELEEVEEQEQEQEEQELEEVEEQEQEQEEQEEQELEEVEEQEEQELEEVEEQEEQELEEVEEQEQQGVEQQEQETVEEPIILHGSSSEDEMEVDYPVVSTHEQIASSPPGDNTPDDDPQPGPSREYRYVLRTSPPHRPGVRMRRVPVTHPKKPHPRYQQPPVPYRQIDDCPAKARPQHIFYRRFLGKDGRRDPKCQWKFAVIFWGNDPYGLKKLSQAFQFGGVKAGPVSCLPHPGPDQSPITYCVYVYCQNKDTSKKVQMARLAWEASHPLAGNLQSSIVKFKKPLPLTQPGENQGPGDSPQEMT
Beta cell apopt – inhibitors of cytokine-induced beta cell apoptosis, primary screen, luminescence. INS-1E cytokine-induced death, ATP luminescence, 48 h; percent of positive-control rescue, neutral wells zero. protection from apoptosis, % (no concentration beside the values). 300,000 compounds, 0.8% hits;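 active = all replicates at 75% or more, or half of them and the mean; inconclusive = half reach 75% but not the mean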;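 note: 0% = cytokine-treated negative control wells and 100% = positive control rescue; higher means more ATP so stronger rescue from cytokine killing; wells of about 40 µL received 100 nL stock; the first replicate is given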
A1 inh – caspase 3/7 activation in MEF A1-2A-BIM cells, primary screen, A1 inhibitor project, cell-based, luminescence, HTS | 330,000 compounds, 0.066% hits | caspase activation, % (concentration not given with the values) | Caspase-Glo 3/7 luminescence, 3 h; percent of clofoctol response, vehicle zero;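 active = over half of replicate activation scores above 10%, or exactly half above 10 with the replicate mean above 10; inconclusive = replicate mean below 10 yet half the replicates above 10; inactive = over half of replicates below 10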;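 note: wells of about 30 µL received 50 nL stock; many hits fall short of the cut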
Vif TR-FRET – inhibitors of Vif binding to APOBEC3G peptide, primary screen, biochemical, TR-FRET, GST-Vif 1-94, biotin-A3G peptide, dose response retest (AID 1117319). Virion infectivity factor (Human immunodeficiency virus type 1 group M subtype B (isolate …. TR-FRET GST-Vif / biotin-A3G peptide binding; higher % means a stronger effect; test concentration not given here; strong numbers were not always called active. inhibition, %, or IC50 in µM where a hit was titrated. 260,000 compounds, 0.57% hits;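 active = above the screen mean plus three standard deviations and confirmed in dose response; inconclusive = results disagree or hit not tested in dose response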;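 note: Vif residues 1-94 fused to GST binding biotinylated APOBEC3G peptide 110-148; 0% = full assay without inhibitor and 100% = GST in place of GST-Vif; retest series ran down from 100 µM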
AF4-AF9 inh – inhibitors of AF4 peptide binding to AF9, primary screen, biochemical, AlphaScreen, biotin-AF4 peptide, FLAG-AF9, single point; inhibition, % at 10 µM; 350,000 compounds, 0.47% hits; AID 651704, 2012;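 active = every replicate reaching a set inhibition limit, whatever the replicate mean, cut at about 25% in these data; inconclusive = mean inhibition reaches that limit but some replicates miss it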;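 note: 0% = plate neutral control median and 100% = total signal loss; the record names both 10 and 1 µM as test concentration; the first replicate is given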
Calb FLC – C. albicans growth inhibition with fluconazole, primary screen, CaCi-2 strain, Alamar Blue fluorescence; C. albicans CaCi-2 (fluconazole-resistant clinical isolate) + fluconazole, 48 h; growth inhibition, % (concentration not given with the values); 300,000 compounds, 0.57% hits;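 active = most replicates above 75%; inconclusive = exactly half above 75%; inactive = most below 75%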;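 note: all wells also contain fluconazole at 8 µg/ml as a sub-toxic cotreatment; 0% = median of DMSO wells and 100% = median of geldanamycin control wells; wells of about 8 µL received 7.5 nL stock; the first replicate is given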
RanGTP-Impb inh – inhibitors of RanGTP-importin-beta interaction, primary screen, biochemical, FRET, CFP-Ran, YFP-importin-beta, homogeneous. cell-free CFP-Ran/YFP-importin-beta FRET ratio. 300,000 compounds, 1.1% hits. inhibition, % (no concentration beside the values). AID 2216, 2009. Ran GTPase (GTP-bound) - importin-beta complex;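 active = most replicates above 15%; inconclusive = exactly half above 15%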;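 note: 0% = DMSO wells and 100% = Ran loaded with GDP instead of GTP; wells of about 40 µL received 100 nL stock; the first replicate is given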
T cruzi repl – inhibitors of intracellular T. cruzi growth, primary screen, luminescence, NIH3T3 host cells; T. cruzi beta-gal in NIH3T3, 90 h; inhibition, % (test concentration not listed); 300,000 compounds, 1.4% hits;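 active = mean inhibition across valid replicates above about 55%, limit read from the data; inconclusive = mean below that limit but half or more replicates reach it; inactive = mean below it, under half of replicates reach it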;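 note: signal also drops with host cell toxicity which is not excluded here; 0% = plate median of DMSO wells and 100% = zero luminescence signal; higher percent means less beta-gal luminescence so fewer parasites; stock transfer was 50 nL into about 50 µL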
An asterisk follows results filed as active; ? = inconclusive; / = not tested or not shown.

SMILES	LANA-H2B inh	Beta cell apopt	A1 inh	Vif TR-FRET	AF4-AF9 inh	Calb FLC	RanGTP-Impb inh	T cruzi repl
COc1ccc(NC(=O)CN2C(=O)NC(c3ccccc3)(c3ccccc3)C2=O)cc1	-4.5	0	0.2	/	2.0	6	3.5	-3
CC(=O)c1ccc(NC(=O)C(Cc2ccccc2)NC(=O)c2ccco2)cc1 (stereo not drawn)	-2.2	2	0.1	-1%	/	2	0.8	-2
C/C=C/c1ccc(OCC(=O)OCC)c(OC)c1	-4.5	-3	-0.4	?	-1.8	-9	1.1	1
NC(=O)c1ccc[n+](CC(=O)c2ccc(NC(=O)c3ccccc3)cc2)c1	-2.3	-8	0.3	1%	2.1	3	2.7	-2
CC(C)(C)C(=O)Nc1ccc2oc(-c3cc(F)c(F)cc3Cl)nc2c1	-1.2	7	-0.8	-8%	/	15	2.8	26
O=C(O)c1ccccc1NS(=O)(=O)c1ccccc1C(F)(F)F	5.1	1	0.0	>100µM*	-18	17	-3.4	-12
CC(=O)c1cccc(NC(=O)CSc2n[nH]c(-c3ccncc3)n2)c1	-3.2	-2	-0.4	/	-1.0	/	/	/
Cc1cc(C(=O)N(CCC#N)Cc2cccs2)no1	4.2	-1	0.7	-5%	-0.7	-6	-1.7	-5
OCCC1CN(C2CCN(c3ccccc3)CC2)CCN1Cc1ccc(F)c(F)c1 (stereo not drawn)	-2.0	3	0.6	5%	-27	-1	-7.9	12
Cn1nnnc1SCc1nnc(-c2ccccc2Br)o1	0.4	-3	-0.3	1%	/	14	3.9	-2
COc1cccc(NC(=O)CN(C)S(=O)(=O)c2ccc3[nH]c(=O)oc3c2)c1	2.9	-2	-4.1	12%	0.3	-8	-0.6	-22
COc1ccc(NC(=O)CCNS(=O)(=O)c2ccccc2F)cc1S(N)(=O)=O	-0.1	-2	-0.4	/	-1.1	0	-2.1	-9
CC(=O)CSc1nnc(Cc2ccc([N+](=O)[O-])cc2)o1	0.4	-9	0.1	-1%	/	3	-2.4	3
Cn1c(/C=C/c2cccc([N+](=O)[O-])c2)nc2ccccc2c1=O	0.5	14	-0.9	1%	?	6	-1.9	9
Cc1[nH]c2ccccc2c1C1(O)C(=O)N(Cc2ccc3c(c2)OCO3)c2ccccc21 (stereo not drawn)	-3.0	1	/	5%	/	-26	-2.7	-7
Cc1ccc(-n2cc(C(=O)c3ccc(N4CCN(C)CC4)cc3)nn2)cc1Cl	-23	-2	0.9	-1%	-2.2	-7	3.3	13
CCN(CC)c1ccc(C(=O)OCC(=O)N2CCCC2)cc1	7.0	-11	-0.7	-2%	/	11	-3.5	0
COC(=O)/C(C#N)=C/c1c(N2CCN(c3ccc(OC)cc3)CC2)nc2c(C)cccn2c1=O	-3.7	-6	-1.0	/	17	4	34*	19
C=CCNc1cnn(CC(C)=O)c(=O)c1Br	-6.1	-1	0.7	0%	/	-11	/	/
Oc1cc(-c2ccccc2)c2ccccc2c1	7.1	-15	0.4	7%	0.2	15	3.4	-7
CC1CCN(CCc2nc3cc(NS(=O)(=O)c4ccccc4)ccc3n2C)CC1	0.2	-4	0.2	31%	/	25	8.0	17
COC(=O)c1ccc(NC(=S)N2CCN(C)CC2)cc1	0.6	-2	-0.4	/	-1.8	0	5.3	11
COc1ccccc1NC(=O)CN1CCC(c2nc3ccc(C)cc3[nH]2)CC1	-4.3	-7	-0.1	/	-2.2	19	1.0	9
CCN(CC)P(=O)(Nc1ccc(C)cc1Br)c1ccc(N(C)C)cc1NC(=O)c1ccco1 (stereo not drawn)	-3.6	-5	0.0	5%	8.0	18	5.1	64*
O=C(COC(=O)c1cc[n+]([O-])cc1)Nc1ccc(Cl)c(C(F)(F)F)c1	-13	-1	-0.5	/	-0.3	/	/	/
N#C/C(=C\c1ccc[nH]1)C(=O)Nc1ccccc1F	0.2	-2	1.0	-1%	0.0	-21	/	/
NS(=O)(=O)c1ccc(NC2(C(=O)O)CCCC2)cc1	-0.9	-7	-0.4	/	0.1	5	-2.5	-13
Cc1ccc(-n2ccnc2SCC(=O)O)cc1C	-1.0	1	0.4	-5%	-7.0	-5	1.3	2
CCC(=O)NC(=S)Nc1cccc(Cl)c1N1CCCCC1	3.2	7	0.7	-4%	/	28	-7.0	9
COc1ccc2oc(=O)c(C(=O)N3CCN(c4ccccc4C)CC3)cc2c1	-5.8	-2	-2.4	?	/	-13	-4.0	-4
CCOC(=O)C1(CC2CCCCO2)CCN(Cc2nc(C(C)C)cs2)CC1 (stereo not drawn)	-1.1	2	-0.2	-2%	2.4	-22	1.4	4
Cc1sc2nc(C3CC3)nc(NCCNS(=O)(=O)c3ccccc3)c2c1C	-2.8	2	0.3	15%	-2.3	-13	-3.3	14
O=C(c1cccc2ccccc12)N1CCN=C1SCc1ccc([N+](=O)[O-])cc1	2.4	-10	-0.2	/	4.6	-11	-3.6	41
CCCN(CCC)C(=S)NC1CC2C=CC1C2 (stereo not drawn)	-2.0	-2	0.6	-11%	2.9	3	0.7	2
CC(NC(=O)COC(=O)c1ccc(N2CCCC2=O)cc1)c1ccc(F)cc1 (stereo not drawn)	-1.4	1	-0.4	/	-5.0	/	/	/
CN(C)C(CNC(=O)C1CCN(S(=O)(=O)c2cccc(Cl)c2Cl)CC1)c1ccccc1 (stereo not drawn)	-1.7	5	0.2	0%	5.3	3	2.9	15
CCCCC1=CC2=CC(=O)C(C)(OC(=O)CC)C(=O)C2=CN1CC(C)C (stereo not drawn)	2.2	-4	-0.6	?	-0.3	13	5.3	18
O=C(NCC(=O)N(CC1CCCO1)C(C(=O)NC1CCCC1)c1cccnc1)c1ccco1 (stereo not drawn)	4.3	-2	-0.2	-2%	/	-6	2.5	5
CCOc1cc(NC(=O)c2ccccn2)c(OCC)cc1NC(=O)c1ccccc1	-0.2	-1	-0.2	-1%	0.7	8	-0.4	1
Cc1ccc2c(CN3CCOCC3)cc(=O)oc2c1	-5.3	2	-0.2	-5%	1.5	7	1.9	-23

4 compounds drawn at random from those above, as already listed:
SMILES	LANA-H2B inh	Beta cell apopt	A1 inh	Vif TR-FRET	AF4-AF9 inh	Calb FLC	RanGTP-Impb inh	T cruzi repl
CCOc1cc(NC(=O)c2ccccn2)c(OCC)cc1NC(=O)c1ccccc1	-0.2	-1	-0.2	-1%	0.7	8	-0.4	1
CC(NC(=O)COC(=O)c1ccc(N2CCCC2=O)cc1)c1ccc(F)cc1 (stereo not drawn)	-1.4	1	-0.4	/	-5.0	/	/	/
CCOC(=O)C1(CC2CCCCO2)CCN(Cc2nc(C(C)C)cs2)CC1 (stereo not drawn)	-1.1	2	-0.2	-2%	2.4	-22	1.4	4
CCCN(CCC)C(=S)NC1CC2C=CC1C2 (stereo not drawn)	-2.0	-2	0.6	-11%	2.9	3	0.7	2

(cont.)
SMILES	LANA-H2B inh	Beta cell apopt	A1 inh	Vif TR-FRET	AF4-AF9 inh	Calb FLC	RanGTP-Impb inh	T cruzi repl
O=C(c1cc(-c2ccccc2)nn1-c1ccccc1)N1CCN(S(=O)(=O)c2c(F)cccc2F)CC1	-4.6	18	-0.7	17%	-36	-1	4.6	5
COC(=O)CSc1nnc(CNC(=O)c2ccc(OC)cc2OC)n1C	1.3	1	0.4	4%	/	11	?	-10
CCC1=[N+](CC(=O)c2ccc(C)cc2)CCn2c(C)ccc21	-3.1	40	-0.2	/	4.9	8	44*	27
O=C(NCCC(=O)N(CCc1ccccc1)Cc1ccccc1)c1ccc(Br)cc1	-10	-5	-1.0	0%	1.6	-2	/	19
CCN(C(=O)CCN1C(=O)/C(=C/c2ccccc2)SC1=S)C1CCS(=O)(=O)C1 (stereo not drawn)	-0.2	-37	0.1	/	11	0	2.2	-8
Cc1ccc(CNc2ncnc3c2cnn3-c2ccccc2)cc1	3.3	3	0.1	?	/	0	-3.1	-6
Cc1ccc(OCC(O)Cn2nc(C)cc2C)cc1 (stereo not drawn)	-4.5	-2	-0.3	9%	1.9	-6	5.8	-12
CC(C)Cn1c2c(c(O)c(C(=O)Nc3ccc(F)cc3)c1=O)CCCC2	-0.2	16	-0.2	-1%	/	8	1.7	31
Cc1cc(C)nc(SCCCNCc2ccccc2)n1	-2.6	1	-0.1	/	1.2	24	2.0	0
CCCc1ccc(OCCNC(=O)C2CCCCC2)cc1	-4.5	-4	-1.2	-5%	-3.7	-29	-2.2	-4
CCc1ccc(NC(=O)c2cc(-c3ccco3)on2)cc1	-2.7	-2	0.2	18%	/	-3	-2.8	-6
Cc1cc(C)cc(NC(=O)C(c2ccccc2)N2CCN(CC(=O)NC3CC3)CC2)c1 (stereo not drawn)	0.0	-2	-0.4	-3%	-1.2	/	/	/
C=CCN(C(=O)c1csnn1)C(C(=O)NCc1ccccc1)c1ccccc1F (stereo not drawn)	3.1	-7	-0.1	/	-0.1	-7	0.2	-2
C=CCn1c(SCC(=O)/C(C#N)=C(\C)N)nnc1C1CCCCC1	14	1	-0.1	6%	/	10	-5.6	-2
C=CCn1c(SCCOC)nc2c1c(=O)[nH]c(=O)n2C	0.0	-8	0.0	-4%	-3.3	-2	-0.6	-12
CCOc1ccc(/C=N/NC(=O)C2CC2)cc1OC	-6.5	-5	0.3	/	0.0	-4	1.9	-8
Brc1ccc(CN2CCSCC2)cc1	-0.1	-1	-0.1	10%	-0.5	1	-1.5	3
COc1ccc(CCNc2oc(COc3ccccc3Cl)nc2C#N)cc1OC	-0.7	-5	1.0	-6%	8.4	5	0.8	8
COCc1cc(=O)[nH]c(N2CCN(C(=O)c3ccco3)CC2)n1	3.2	-4	1.9	-9%	-0.5	4	-3.8	-8
Cc1nn(Cc2ccccc2Cl)c2sc(C(=O)Nc3nccs3)cc12	1.5	1	-0.8	-41%	/	-6	1.9	32
O=C(NCc1ccc2c(c1)OCO2)c1cc(S(=O)(=O)N2CCCCC2)ccc1F	6.6	-2	0.0	-3%	/	-5	?	9
Cc1cc(C)c(C(=O)NCC(=O)c2ccccc2)c(C)c1	-7.4	1	0.0	/	1.0	0	3.4	2
CC1CCC(NC(=O)c2nn(C)c3c2CSc2ccccc2-3)CC1 (stereo not drawn)	0.8	-3	-0.1	/	0.0	-2	4.1	-8
Brc1ccc(-c2nnc(-c3cccc(Br)c3)o2)cc1	2.4	9	-1.4	49%	/	13	-3.0	7
COCCN(CCOC)S(=O)(=O)c1ccc(Cl)nc1	-1.2	-5	0.7	-8%	-6.4	-11	1.1	-11
O=C(Cc1ccc(F)cc1)Nc1ccc2[nH]ncc2c1	6.3	-19	-0.1	/	-3.4	8	?	3
CCOc1ncccc1C(=O)Nc1ccc(S(=O)(=O)N2CC(C)CC(C)C2)cc1 (stereo not drawn)	1.7	5	-0.7	-15%	-4.1	/	/	/
CCOc1cc(C(=O)O/N=C(\N)c2ccccn2)cc(OCC)c1OCC	-5.2	3	0.8	-5%	-0.5	6	-3.0	31
